TRPML1 agonist: activates the human TRPML1 channel | activation, % (test concentration not listed) | 410,000 compounds, 0.12% hits | TRPML1-expressing cells, Ca2+ dye fluorescence, FDSS; host cell line not named in the record; reference of the full effect not given here | AID 624414; in the data active = activation above about 50%; inconclusive = about 30% to 50%; inactive = below about 30%; further: 0% is about no effect; the text of the record puts the active cut at 80%
Target sequence (Q9GZU1 whole entry, looked up): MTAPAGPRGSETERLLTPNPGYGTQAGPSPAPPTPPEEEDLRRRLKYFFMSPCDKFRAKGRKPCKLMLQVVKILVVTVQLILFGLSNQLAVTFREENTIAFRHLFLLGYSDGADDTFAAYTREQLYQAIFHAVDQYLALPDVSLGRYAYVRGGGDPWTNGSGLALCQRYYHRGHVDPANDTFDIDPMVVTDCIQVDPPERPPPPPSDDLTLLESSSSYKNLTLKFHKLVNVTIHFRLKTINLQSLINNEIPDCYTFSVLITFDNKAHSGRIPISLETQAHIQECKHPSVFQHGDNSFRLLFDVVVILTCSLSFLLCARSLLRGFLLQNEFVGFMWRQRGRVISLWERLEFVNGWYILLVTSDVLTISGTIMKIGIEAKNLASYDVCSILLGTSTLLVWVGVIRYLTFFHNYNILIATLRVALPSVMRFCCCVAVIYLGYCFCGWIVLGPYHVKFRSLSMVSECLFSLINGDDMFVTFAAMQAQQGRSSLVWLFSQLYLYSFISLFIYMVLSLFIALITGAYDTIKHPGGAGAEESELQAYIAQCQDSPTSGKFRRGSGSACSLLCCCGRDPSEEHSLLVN
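Tetracycline-induced TRPML1-DL cells are seeded and incubated overnight before loading with a no-wash Ca2+ dye and quencher. Agonist activity is taken from the 110 s fluorescence read following compound pin-transfer on an FDSS, before EC80 54-4 challenge.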
TRPML1 inh: blocks the human TRPML1 channel | AID 624415 | Q9GZU1 | activity change, negative = inhibition, % (test concentration not listed) | TRPML1-inducible cells, Ca2+ dye fluorescence, FDSS; hits give low values; inhibition of EC80 agonist-evoked calcium signal | 390,000 compounds, 0.02% hits; in the data active means activity change below about -50%; inconclusive means about -30% to -50%; inactive means above about -30%;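 further: stimulus is agonist 54-4 at its EC80 concentration; on the % scale 0 is the no-effect control and ±100 the full control effect; compound concentration not given in the record; the text of the record puts the active cut at -80%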
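Tet-induced TRPML1-DL cells loaded with Ca8 no-wash calcium dye were read kinetically on FDSS. Compound addition was followed by EC80 agonist 54-4 (4 uM final); inhibition was read over 110 s.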
gsp antagonist: antagonizes gsp, the McCune-Albright syndrome mutation. 340,000 compounds, 0.4% hits. AID 624288. Potency, µM (doses to about 76.9 µM), without a hit: at the top dose activity change, negative = inhibition, actives largely listed as inhibitors. gsp-mutant cells, cAMP HTRF, 30 min; control for the full effect not named in the record; active = falling curve of any shape with a large fitted effect; inconclusive = falling curve, mostly with a smaller effect; inactive = flat or rising curve; cell line not stated here;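 further: intracellular cAMP measured with PDE inhibitor Ro 20-1724 present during compound exposure; potency means the concentration at half of the fitted maximal effect; on the % scale 0 is the no-effect control and ±100 the full control effect; nearly all actives have a fitted effect of over 65% in size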
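HTRF cAMP read-out (cAMP-d2 plus anti-cAMP antibody-K in lysis buffer, 30 min RT). Before lysis, cells are exposed to compounds with […] for 30 min at 37C in DPBS containing Ca/Mg, BSA and Tween 20.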
gsp ag: activates gsp, the McCune-Albright syndrome mutation. AID 624287. Potency, µM (series often up to 76.9 µM), for the others: at the highest dose activation (cAMP increase), usual class: activators. gsp mutant cells, cAMP HTRF, 30 min; control for the full effect not named in the record. 340,000 compounds, 0.13% hits; active = well fitted activation curve with a large enough effect; inconclusive = small, poorly fitted or top-dose-only effect, or another doubt; inactive = no such curve, though single readings can be large or run the other way; cell line not stated here;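 further: phosphodiesterase inhibitor Ro 20-1724 added with compounds to block cAMP breakdown; potency means the concentration at half of the fitted maximal effect; nearly all actives have a fitted effect of over 60% in size; about a fifth of the inactives were tested at one dose only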
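Cells stably selected in G418 were plated at 2000/well, grown 16-24 hr, then given compounds in DMSO with the PDE inhibitor […] (300 uM solution added) for 30 min at 37C; cAMP was read by HTRF.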
ClpP mod: qHTS Assay for Activators of ClpP | Potency, µM (doses to about 57.5 µM), for the others: at the top dose activity change, negative = active | 340,000 compounds, 1.9% hits | purified B. subtilis ClpP, FRET peptide cleavage, 20 min | ATP-dependent Clp protease proteolytic subunit (Bacillus subtilis (strain 168)), P80244 | AID 651965, 2013; active = well fitted falling curve with a large enough effect; inconclusive = small, poorly fitted or top-dose-only effect; inactive = no such curve, though single readings can be large or run the other way; further: potency means the concentration at half of the fitted maximal effect; the source files actives as falling curves though it sought activators and does not explain the sign; nearly all actives have a fitted effect of over 65% in size; many hits overshoot -100%
Target sequence (P80244 whole entry, looked up): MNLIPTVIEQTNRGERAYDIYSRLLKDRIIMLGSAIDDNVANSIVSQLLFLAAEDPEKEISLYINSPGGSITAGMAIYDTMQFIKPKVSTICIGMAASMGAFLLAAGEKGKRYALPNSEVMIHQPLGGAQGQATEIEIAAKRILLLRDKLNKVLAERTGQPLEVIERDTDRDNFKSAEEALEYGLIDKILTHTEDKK
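Purified B. subtilis ClpP, 10 microg/mL final in Tris/HCl pH8 with KCl, BSA, glycerol and Tween-20, cleaved an Abz/nitrotyrosine-quenched decapeptide. Fluorescence (ex 320, em 430) was read at 0 and 20 min at room temperature. Delta was normalized to 5.8 microM ADEP and DMSO/no-enzyme controls.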
Menin-MLL FL inh: inhibitors of human menin-MLL interaction, wild-type MLL peptide | Fluorescence polarization, fluorescein-MLL peptide displacement from menin | FP activity change, % at 61.4 µM | 290,000 tested, under 10 active; inconclusive = falling polarisation curve, or a change in total fluorescence; inactive = total fluorescence flat and polarisation flat or rising; no compound was filed as active; the % refers to the polarisation; negative = inhibition;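 further: % of control where 0% means no effect; inhibitors lower the polarisation; unlabelled MLL peptide was the positive control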
* hit, by the source's call; ? = inconclusive; / = no result given; [ ] = another dose, or the depositor's remark.

Fields – TRPML1 agonist	TRPML1 inh	gsp antagonist	gsp ag	ClpP mod	Menin-MLL FL inh
1	Cc1c(Cl)cnc(NC(=O)COC(=O)c2cccc(S(=O)(=O)N3CCOCC3)c2)c1Cl
 : -0.5	-3.3	/	-85.2%[inhibitor]	1.3%	/
2	COc1cc(C(=O)N2CCN(C(=O)COc3cccc(C)c3)CC2)cc(OC)c1OC
 : -1.1	3.3	/	/	0.8%	/
3	C[C@@H]1C(=O)N(S(=O)(=O)c2ccc([N+](=O)[O-])cc2)[C@H]1c1ccccc1
 : 0.0	40.6	/	/	/	1.7
4	Cc1ccc(S(=O)(=O)NN=C2CC3CCC2(C)C3(C)C)cc1 (stereo unspecified)
 : 1.7	32.5	-5.1%	-91.8%[inhibitor]	/	/
5	Cc1ccccc1Oc1nc2c(C)cccn2c(=O)c1/C=C(\C#N)C(=O)Nc1c(C)n(C)n(-c2ccccc2)c1=O
 : 2.1	41.4	14.8%	35.7%	0.5%	-1.3
6	CCn1cc(C(=O)N[C@H](C(=O)O)C(C)C)c(=O)c2cc3c(cc21)OCO3
 : -0.5	4.5	3.6%	24.4%	-29.4%	8.5
7	CCOC(=O)c1n[nH]n(-c2cc(Cl)cc(Cl)c2)c1=O
 : 0.1	-5.8	-3.0%	-7.8%[15.4 µM]	-0.7%	4.8
8	NC(CSC1(c2ccc(F)cc2)c2ccccc2-c2ccccc21)C(=O)O (stereo unspecified)
 : -0.7	-2.5	/	31.2%	2.8%	/
9	COc1cc(/C=N/n2c(C3CCCCC3)n[nH]c2=S)ccc1O
 : 1.3	1.1	-6.4%	15.9%	-7.3%	-1.3
10	Cc1ccc(C)c(-c2ccc(=O)n(Cc3cccc(Br)c3)n2)c1
 : 0.2	6.8	-11.7%	1.5%[15.4 µM]	-1.7%	-1.0
11	Cc1ccc(C(=O)Nc2ccc3c(c2)OCCO3)c(Cl)c1
 : -0.4	-1.3	-5.9%	-4.2%	-2.9%	-1.1
12	S=C(Nc1cc(Cl)cc(Cl)c1)NC1CCN(Cc2ccccc2)CC1
 : 3.4	14.0	10.4%	9.9%	0.2%	0.1
13	Cc1nc(N2CCN(C(=O)c3ccco3)CC2)c2c3c(sc2n1)CCC3
 : 1.7	-6.7	?	-14.8%	-4.0%	4.4
14	COc1ccc(OC)c(-n2c(SCC(N)=O)nnc2-c2c[nH]c3ccccc23)c1
 : 0.0	3.7	6.1%	-46.0%[inhibitor]	-1.4%	-0.2
15	Cc1cc(C)n(-c2ccc(C(=O)Nc3cccnc3Cl)cc2)n1
 : 0.3	-3.8	0.6%	33.0%	-1.2%	-8.8

Next section, starting with the last three of the part before.
Fields – TRPML1 agonist	TRPML1 inh	gsp antagonist	gsp ag	ClpP mod	Menin-MLL FL inh
13	Cc1nc(N2CCN(C(=O)c3ccco3)CC2)c2c3c(sc2n1)CCC3
 : 1.7	-6.7	?	-14.8%	-4.0%	4.4
14	COc1ccc(OC)c(-n2c(SCC(N)=O)nnc2-c2c[nH]c3ccccc23)c1
 : 0.0	3.7	6.1%	-46.0%[inhibitor]	-1.4%	-0.2
15	Cc1cc(C)n(-c2ccc(C(=O)Nc3cccnc3Cl)cc2)n1
 : 0.3	-3.8	0.6%	33.0%	-1.2%	-8.8
16	CN1CCN(c2ccc(NC(=O)CSc3nnnn3-c3ccccc3Cl)cc2)CC1
 : 0.8	41.0	12.6%	-2.1%	-1.3%	0.4
17	O=C(Cc1c[nH]c2ccccc12)NCc1ccc(Cl)cc1
 : 0.0	2.0	-1.2%	-42.2%[inhibitor]	0.0%	4.9
18	CCCN(CCC)CCOc1cc(C)ccc1C(C)C
 : 2.3	6.0	14.3%	23.2%	-2.5%	5.7
19	COc1ccc(NC(=O)CC2C(=O)NCCN2C(=O)Nc2ccc(C(F)(F)F)cc2)cc1 (stereo unspecified)
 : -0.2	-2.5	-8.4%	?	0.2%	/
20	Cn1c(=NC(=O)c2ccco2)sc2ccccc21
 : -1.1	2.7	-5.2%	-10.9%[15.4 µM]	/	-0.3
21	COc1ccc(Cc2nnnn2CC(=O)O)cc1
 : -0.9	-16.1	6.8%	3.3%	-1.9%	-1.0
22	Cc1ccc(S(=O)(=O)N(C)c2ccc(C(=O)Nc3ccccn3)cc2)cc1
 : 0.4	-9.0	-28.1%	-26.9%	1.3%	/
23	O=C(COC(=O)c1ccc(S(=O)(=O)N2CCCC2)cc1)Nc1cccc(F)c1
 : 0.4	-11.5	-3.4%	-20.4%	-1.3%	/
24	O=C(/C=C/c1ccccc1)NNC(=O)c1ccco1
 : 0.6	10.1	-12.4%	9.2%[15.4 µM]	/	6.3
25	O=S1(=O)CC(N2CCCC2)CN1Cc1ccc(F)cc1 (stereo unspecified)
 : -0.3	-5.3	/	/	1.7%	/
26	COc1ccc(C(=O)NCc2ccc3c(c2)CCN3C(C)=O)cc1OC
 : 2.0	16.4	/	/	-4.0%	/
27	Cc1ccc(NC(=O)CSCC(=O)N(C)CC(=O)Nc2cccc3ccccc23)cc1
 : 1.6	-0.5	-2.6%	-3.6%[15.4 µM]	/	/
28	Cn1cnc([N+](=O)[O-])c1Cl
 : 0.4	-3.0	2.3%	13.4%[15.4 µM]	-2.0%	4.5
29	Cc1ccccc1-c1cccc([C@@H]2C[C@H]3C(CN2)CON3C)c1 (stereo partly specified)
 : 0.9	18.4	5.1%	/	1.4%	/
30	COc1cc(C(F)(F)F)c(C(=O)N(C)Cc2ccc(Cl)c(Cl)c2)cn1
 : 0.6	34.4	-3.7%	8.6%[15.4 µM]	/	0.9

Fields – TRPML1 agonist	TRPML1 inh	gsp antagonist	gsp ag	ClpP mod	Menin-MLL FL inh
31	O=C(Cc1ccc(S(=O)(=O)N2CCOCC2)s1)NCC1CCCCC1
 : -0.2	-6.5	9.4%	0.0%	-5.3%	7.4
32	COc1ccc(C(=O)C(C)OC(=O)c2nc3nccc(C)n3n2)cc1 (stereo unspecified)
 : 1.3	9.8	0.3%	16.4%	-0.5%	/
33	Clc1ccccc1N1CCN(c2ncnc3nc[nH]c23)CC1
 : -0.7	22.0	4.8%	-3.0%	0.1%	-1.2
34	Nn1c(SCC(=O)Nc2nccs2)nncc1=O
 : -0.4	17.3	1.4%	-7.5%[15.4 µM]	-2.8%	5.9
35	CN(C)c1ncc(S(=O)(=O)c2ccc(Cl)cc2)c(-c2ccc(Cl)cc2Cl)n1
 : ?	-12.7	-14.7%	?	?	2.9
36	Cc1c(Cl)cccc1NC(=O)CCC(=O)N/N=C/c1ccco1
 : -0.7	-4.3	-2.5%	-17.7%	2.0%	-4.1
37	O=C(Nc1ccc2nc(SCC(=O)N3CCCC3)sc2c1)c1ccccc1F
 : 1.4	-2.4	/	/	-1.6%	/
38	CCOC(=O)c1c(C)[nH]c(C)c1S(=O)(=O)NCC1CCN(Cc2ccc(C)cc2)CC1
 : -0.6	22.6	7.3%	-4.7%	1.0%	-5.2
39	Cc1cccc(NC(=O)CCC(=O)N/N=C/c2ccco2)c1
 : 1.6	-5.0	-2.1%	14.8%	0.1%	-3.3
40	CCc1ccc(-n2nnc(-c3nc(-c4ccc(C)cc4)no3)c2N)cc1
 : 0.1	22.9	/	/	-2.7%	/
41	CC(C)SCCCCOc1ccc2ccccc2c1
 : 0.2	-4.7	-3.5%	-20.0%	-10.3%	3.0
42	COc1ccc(NS(=O)(=O)c2cccc(C(=O)NNC(=O)c3ccc(C)o3)c2)cc1
 : -0.2	-11.9	5.6%	28.9%	-1.0%	/
43	COc1cccc(CCNC(=O)c2cnc3sc(N4CCOCC4)nn3c2=O)c1
 : -0.3	-3.7	/	/	-16.3%	/
44	O=c1oc(-c2ccco2)nc2sc3c(c12)CCCCC3
 : -0.4	-13.0	-7.6%	-20.8%[15.4 µM]	-1.5%	2.4
45	O=C(NCC1CCCO1)c1ccc(NC(=O)c2cccc([N+](=O)[O-])c2)cc1 (stereo unspecified)
 : -0.4	6.9	-8.6%	-40.3%[inhibitor]	/	0.2

Fields – TRPML1 agonist	TRPML1 inh	gsp antagonist	gsp ag	ClpP mod	Menin-MLL FL inh
46	CCN(CC)CC(O)COC(c1ccccc1)c1ccccc1 (stereo unspecified)
 : 0.3	-0.3	1.6%	-30.9%[inhibitor]	-0.4%	-1.0
47	CS(=O)(=O)N(CC(=O)N1CCCC1)Cc1ccccc1
 : 0.8	-12.8	8.2%	0.4%[15.4 µM]	-11.2%	-3.2
48	CCCc1cc(=O)[nH]c(SCC(=O)Nc2sc3c(c2C#N)CCCC3)n1
 : -0.7	-3.2	-8.4%	21.5%	-1.1%	/
49	Cc1ccc2c(c1)cc(C)c1nnc(SCC(=O)NCc3ccco3)n12
 : 0.4	-3.6	-4.0%	20.0%	-11.0%	1.4
50	CCc1cccc(NC(=O)Cn2nc3c4cc(F)ccc4n(Cc4cccc(C)c4)cc-3c2=O)c1
 : 1.2	-11.9	/	/	-0.1%	/
51	CCc1nnc(NC(=O)CSc2nnc(CNc3ccc(OC)cc3)n2C)s1
 : 0.0	12.5	-7.1%	2.8%[15.4 µM]	/	4.1
52	COc1ccc2c(CNCCc3ccc(SC)cc3)c(C(=O)O)n(Cc3ccc(F)cc3)c2c1
 : 3.3	-9.1	/	/	-11.8%	/
53	O=C(NNC(=O)c1ccc(O)cc1O)c1ccc(Cl)cc1
 : 0.8	-16.7	-1.6%[15.4 µM]	-4.5%	-1.1%	4.9
54	COCCNC(=O)C(c1ccc(F)cc1)N(CC1CCCO1)C(=O)CCC(=O)Nc1ccccn1 (stereo unspecified)
 : 0.0	0.8	-8.9%	-2.9%	-0.8%	2.7
55	O=S(=O)(/C(=C\c1ccc(C(F)(F)F)cc1)c1nc2ccccc2[nH]1)c1ccccc1
 : -0.4	-5.6	16.7%	26.6%	/	/
56	CC(NC(=S)NC1CCCCC1)c1ccccc1 (stereo unspecified)
 : -1.0	3.3	-0.5%	9.1%	0.1%	11.0
57	COc1ccc(CC(=O)Nc2ccc(-c3nc4cc(C)ccc4o3)c(O)c2)cc1OC
 : -0.4	7.5	8.2%	12.6%	35.5µM*	11.5
58	O=C(COC(=O)CNC(=O)c1ccc(Cl)cc1Cl)NNC(=O)c1ccccc1
 : 2.1	46.1	1.6%	-25.4%	1.4%	/

Assay outcomes deposited in PubChem BioAssay by National Center for Advancing Translational Sciences (NCATS).
